ClpP mod = qHTS Assay for Activators of ClpP. ATP-dependent Clp protease proteolytic subunit (Bacillus subtilis (strain 168)), P80244. purified B. subtilis ClpP, FRET peptide cleavage, 20 min. Potency, µM (doses to about 57.5 µM), inactives show at the top dose activity change, negative = active. actives 1.9% (n = 340,000). AID 651965, 2013; active = well fitted falling curve with a large enough effect; inconclusive = small, poorly fitted or top-dose-only effect; inactive = no such curve, though single readings can be large or run the other way; also: potency is read from the fitted curve at half-maximal effect; the source files actives as falling curves though it sought activators and does not explain the sign; nearly all actives have a fitted effect of over 65% in size; many hits overshoot -100%
Target sequence (P80244 whole entry, looked up): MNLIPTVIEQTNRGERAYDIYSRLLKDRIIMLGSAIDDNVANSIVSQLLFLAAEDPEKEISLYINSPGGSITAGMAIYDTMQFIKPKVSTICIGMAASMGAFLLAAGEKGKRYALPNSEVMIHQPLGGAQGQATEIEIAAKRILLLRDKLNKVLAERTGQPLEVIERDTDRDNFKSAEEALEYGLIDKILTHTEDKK
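ClpP 10 microg/mL final, pH 8 Tris/KCl buffer with BSA, glycerol, Tween-20; compound pinned in; FRET-FV substrate; RT 20 min; Ex320/Em430; ΔFRET vs ADEP 5.8 microM, DMSO, no enzyme.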
gsp ag = gsp mutant agonism; gsp mutant cells, cAMP HTRF, 30 min; control for the full effect not named in the record; AID 624287; actives 0.13% (n = 340,000); Potency, µM (highest dose often 76.9 µM), for inactives: at the highest dose activation (cAMP increase), most hits filed as activators; active = well fitted activation curve with a large enough effect; inconclusive = small, poorly fitted or top-dose-only effect, or another doubt; inactive = no such curve, though single readings can be large or run the other way; cell line not stated here;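 also: phosphodiesterase inhibitor Ro 20-1724 added with compounds to block cAMP breakdown; potency is read from the fitted curve at half-maximal effect; nearly all actives have a fitted effect of over 60% in size; about a fifth of the inactives were tested at one dose only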
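Cells stably selected in G418 were plated at 2000/well, grown 16-24 hr, then given compounds in DMSO with the PDE inhibitor […] (300 uM solution added) for 30 min at 37C; cAMP was read by HTRF.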
gsp antag = gsp mutant antagonism; gsp-mutant cells, cAMP HTRF, 30 min; control for the full effect not named in the record; Potency, µM (highest dose often 76.9 µM), for inactives: at the highest dose activity change, negative = inhibition, hits mostly inhibitors; actives 0.4% (n = 340,000); active = falling curve of any shape with a large fitted effect; inconclusive = falling curve, mostly with a smaller effect; inactive = flat or rising curve; cell line not stated here;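 also: intracellular cAMP measured with PDE inhibitor Ro 20-1724 present during compound exposure; potency is read from the fitted curve at half-maximal effect; % is scaled to controls: 0 for no effect and ±100 for the full control effect; nearly all actives have a fitted effect of over 65% in size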
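HTRF cAMP measurement after 30 min RT detection following 30 min, 37C compound treatment alongside […] (added as 300 uM solution) in G418-selected cells seeded at 2000/well and grown 16–24 h.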
Menin-MLL FL inh = displaces fluorescein MLL peptide from human menin. AID 1766. Fluorescence polarization, fluorescein-MLL peptide displacement from menin. 290,000 tested, under 10 active. FP activity change, % at 61.4 µM; inconclusive = falling polarisation curve, or a change in total fluorescence; inactive = total fluorescence flat and polarisation flat or rising; no compound was filed as active; the % refers to the polarisation; negative = inhibition;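 also: % of control where 0% means no effect; inhibitors lower the polarisation; unlabelled MLL peptide was the positive control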
TRPML1 inh = inhibitors of human TRPML1 channel; Q9GZU1; TRPML1-inducible cells, Ca2+ dye fluorescence, FDSS; active compounds read low; inhibition of EC80 agonist-evoked calcium signal; activity change, negative = inhibition, % (no concentration beside the values); actives 0.02% (n = 390,000); AID 624415; in the data active means activity change below about -50%; inconclusive means about -30% to -50%; inactive means above about -30%;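 also: stimulus is agonist 54-4 at its EC80 concentration; % is scaled to controls: 0 for no effect and ±100 for the full control effect; compound concentration not given in the record; the text of the record puts the active cut at -80%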
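Tet-induced TRPML1-DL cells loaded with Ca8 no-wash calcium dye were read kinetically on FDSS. Compound addition was followed by EC80 agonist 54-4 (4 uM final); inhibition was read over 110 s.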
TRPV1 potentiator = human TRPV1 potentiation. AID 540277. TRPV1-expressing cells, Fluo-8 calcium influx, capsaicin EC20 potentiation; host cell line not named in the record; control for the full effect not named in the record. actives 0.02% (n = 320,000). potentiation, % at 8.33 µM. Q8NER1; active means potentiation above 80%; inconclusive means 30% to 80%; inactive means below 30%; also: 0% is about no effect
Target sequence (Q8NER1 whole entry, looked up): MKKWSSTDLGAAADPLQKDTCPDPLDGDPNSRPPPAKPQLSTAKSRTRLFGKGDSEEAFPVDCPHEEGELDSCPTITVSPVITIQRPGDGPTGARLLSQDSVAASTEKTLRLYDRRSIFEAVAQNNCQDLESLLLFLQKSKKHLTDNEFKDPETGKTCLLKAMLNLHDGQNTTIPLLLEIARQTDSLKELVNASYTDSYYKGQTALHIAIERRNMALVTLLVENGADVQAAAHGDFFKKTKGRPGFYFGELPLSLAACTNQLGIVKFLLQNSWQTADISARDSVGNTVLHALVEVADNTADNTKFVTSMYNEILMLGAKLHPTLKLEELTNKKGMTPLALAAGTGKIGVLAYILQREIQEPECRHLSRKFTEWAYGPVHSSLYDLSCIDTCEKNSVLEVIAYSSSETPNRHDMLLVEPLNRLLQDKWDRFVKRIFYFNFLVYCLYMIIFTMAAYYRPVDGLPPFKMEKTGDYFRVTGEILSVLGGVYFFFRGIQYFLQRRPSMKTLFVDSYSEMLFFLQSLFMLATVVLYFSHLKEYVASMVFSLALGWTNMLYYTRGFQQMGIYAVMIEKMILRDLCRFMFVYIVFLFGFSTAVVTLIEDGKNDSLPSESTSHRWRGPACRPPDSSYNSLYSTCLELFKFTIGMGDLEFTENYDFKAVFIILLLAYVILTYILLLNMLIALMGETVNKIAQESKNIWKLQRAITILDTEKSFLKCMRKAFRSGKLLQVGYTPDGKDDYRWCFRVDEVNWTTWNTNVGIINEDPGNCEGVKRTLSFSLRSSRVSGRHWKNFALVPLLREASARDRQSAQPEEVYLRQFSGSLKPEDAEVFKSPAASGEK
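TRPV1-expressing cells were cultured overnight at 35.5C and loaded with Fluo-8 calcium dye for 40 to 90 min at room temperature. After a 10 s baseline, compound was added and calcium influx was read kinetically for 3 min (ex 480/em 520 nm).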
Sfp inh = inhibitors of Bacillus subtilis Sfp phosphopantetheinyl transferase; actives 3.5% (n = 310,000); Q9F4F7; Biochemical Sfp PPTase activity, qHTS; Potency, µM, without a hit: max response, negative = inhibition, hits mostly inhibitors; active = well fitted inhibition curve with a large enough effect; inconclusive = small, poorly fitted or top-dose-only effect, or another doubt; inactive = no such curve, though single readings can be large or run the other way;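 also: the enzyme is Sfp with the accession as filed and its product quenches rhodamine fluorescence; potency is read from the fitted curve at half-maximal effect; 0% = enzyme reaction without inhibitor and -100% = no enzyme wells; top concentration of the series not given in the record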
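Reaction rates are the 30-min fluorescence difference (ex 525, em 598 nm) in wells containing 15 nM Sfp, 5 uM rhodamine-CoA and 12.5 uM BHQ-2-YbbR at pH 7.6 with 10 mM MgCl2.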
The depositor's hits bear a star; ? = inconclusive; . = not tested or not shown; & = joins results of further samples; [ ] = another dose, or the depositor's remark.

SMILES	ClpP mod	gsp ag	gsp antag	Menin-MLL FL inh	TRPML1 inh	TRPV1 potentiator	Sfp inh
CC(C)(C)c1ccc(C(=O)Nc2ccc(S(=O)(=O)Nc3cnc4ccccc4n3)cc2)cc1	.	-38%	?	6.3	12	-5	12%
COC(=O)c1cc2occc2n1Cc1c(F)cccc1Cl	.	.	.	3.0	.	24	-7%
COCCCNC(=O)CSc1nc2ccccc2c(=O)n1CCCC(=O)NCC1CCCO1 (centres undefined)	-2.0%	?	4%	0.8	-24	2	7%
O=C(CCCOc1ccccc1)N1CCN(S(=O)(=O)c2ccc(Cl)cc2)CC1	1.5%	15%	7%	.	1	?	.
COn1c(-c2ccc(Cl)cc2)nc2ccc(Cl)cc21	-0.9%	-4%	-24%	3.3	41	3	-13%
N/C(=N\OC(=O)COc1ccc([N+](=O)[O-])cc1)c1ccc(Br)cc1	.	.	.	-0.3	.	?	4%
Cc1ccc(C)c(N2CC(=O)N(c3cc(C)ccc3C)CC2=O)c1	0.1%	22%	-1%	5.0	-10	-9	15%
COc1cccc(C(=O)NNC(=O)c2sccc2-n2cccc2)c1	0.8%	?	7%	-0.4	-14	-4	14%
O=C1CCCN1C(=O)CSc1ccc2ccccc2n1	-2.2%	20%	13%	.	-12	4	.
O=C(COC(=O)c1cc(S(=O)(=O)N2CCOCC2)ccc1F)Nc1ccc2c(c1)OCO2	-0.7%	-23%	-9%	.	-5	.	.
O=C(Cc1ccc([N+](=O)[O-])cc1)NCc1ccccc1Cl	11µM*	8%	9%	-0.3	0	-19	13%
CN(CCCC1CCCC1)C(=O)c1cc(COc2c(F)cccc2F)on1	0.6%	16%	-4%	.	17	-7	-8%
O=C(c1ccc(C(F)(F)F)cc1)C1CCCN(C(=O)CN2CCCC2=O)C1 (centres undefined)	.	5%[15.4 µM]	8%	-1.1	-8	3	-14%
O=C(CCn1nnc2ccccc21)Nc1nnc(Cc2ccccc2)s1	-25%	?	32µM*	-0.7	5	17	50µM*
CC(C)(C)C(=O)CSc1ncnc2c1cnn2Cc1ccccc1	.	5%	-10%	3.9	8	-13	6%
Fc1ccc(NC(=S)NCc2ccccn2)cc1	-0.5%	4%	4%	3.0	-27	-3	5%
O=C(c1ccc[nH]1)N1O[C@@H]2C=C[C@H]1C2	-0.4%	.	3%	.	-6	.	.
Cc1cc(C)cc(OCC(=O)N(C)CC(=O)Nc2ccc(N3CCOCC3)cc2)c1	0.8%	-27%	1%	.	9	-15	.
Cc1ccc(N=C2C(=S)N(c3ccc(C)cc3)C(=N)N2/N=C/c2ccc(Cl)cc2)cc1	-0.6%	-28%	2%	1.5	9	9	40µM*
Cc1occc1C(=O)NNC(=O)c1ccccc1[N+](=O)[O-]	-2.7%	?	3%	.	-10	-3	2%
CCCCn1c(N)c(N(CC)C(=O)c2cc3c(s2)CCCCC3)c(=O)[nH]c1=O	-0.4%	0%	-1%	.	15	-11	.
O=C(/C=C/c1ccccc1)NCCc1nc2ccccc2[nH]1	.	2%[15.4 µM]	1%	8.3	-5	.	15%
Cn1c(N)c(C(=O)COC(=O)CNC(=O)c2ccccc2Cl)c(=O)n(C)c1=O	1.1%	?	11%	.	6	4	.
COc1ccc(CCN2CNc3c(c(=O)n(C)c(=O)n3C)C2)cc1OC	-1.5%	4%	-10%	5.3	19	7	-7%
CCN(CC)S(=O)(=O)c1ccc(N2CCCC2)c(C(=O)OCC(=O)/C(C#N)=C(\C)N)c1	-0.5%	?	-4%	-1.6	-2	8	8%
Cc1cc(C)c2c(-n3cccc3)nn(C)c2n1	-5.1%	16%	-9%	3.5	-13	-5	-7%
COC(=O)c1c(-c2c(Cl)cccc2Cl)noc1C(=O)NN	-0.9%	6%[15.4 µM]	11%	-0.3	7	0	-10%
O=C(C[n+]1cccc(Br)c1)c1cccs1	1.7%&-0.7%	2%	2%	0.4	-26	5	3%
CCc1nnc(N/N=C/c2c(F)cccc2Cl)n1N	0.1%	7%	5%	-0.7	.	-3	-25%
CCOC(=O)C1(CC)NC(c2ccco2)C2C(=O)N(C)C(=O)C21 (centres undefined)	0.6%	5%	13%	2.5	2	-7	13%
Cc1c(CN(C)C(=O)c2nn(C)cc2[N+](=O)[O-])cnn1C	2.6%	-5%	-9%	-2.3	-12	2	20%
Cc1ccnc(N2C(=O)c3ccccc3C2O)c1 (centres undefined)	-11%	1%	5%	2.4	-10	5	-9%
COc1ccc(NC(=O)COC(=O)CNC(=O)c2cc(OC)c(OC)c(OC)c2)cc1	0.8%	-31%	6%	6.6	6	-3	11%
CC(C(=O)Nc1ccccc1)C(=O)Nc1ccccc1	2.2%	0%	-2%	-0.7	19	?	3%
CCOc1ccc(N(CC)C(=O)CCS(=O)(=O)c2cccc3nonc23)cc1	.	-9%[15.4 µM]	-11%	-0.5	16	0	14%
CCc1cccc(C)c1NC(=O)CC(C)(C)CC(=O)O	0.8%	-2%[15.4 µM]	1%	6.4	4	-6	2%
CCOC(=O)C1CCCN(C(=O)c2cc3c(C)nc4ccccc4c3o2)C1 (centres undefined)	0.7%	14%	-6%	2.5	55	-19	6%
COC(=O)c1sccc1NC(=S)N1CC(C)CC(C)C1 (centres undefined)	0.9%	?	?	4.5	7	-22	-24%
CCOC(=O)c1ccc(N=c2sc(C(=O)OC)cc(=O)n2Cc2ccc3c(c2)OCO3)cc1	-28%	-32%[inhibitor]	-13%	-0.7	9	14	10%
CCOc1ccc(NC(=O)COC(=O)c2cc([N+](=O)[O-])ccc2N2CCOCC2)cc1	.	15%[15.4 µM]	1%	.	-1	-3	.
CNC(=O)NC(=O)COC(=O)CCCOc1ccc(OC)cc1	1.4%	-17%	7%	1.5	16	-9	9%
CNC(=O)c1ccc(NC(=O)CC23CC4CC(CC(C4)C2)C3)cc1	.	-15%[15.4 µM]	5%	.	17	7	6%
COc1ccc(CCC(=O)Nc2cc(Cl)ccc2OC)cc1	-1.3%	17%	-33%	-7.7	32	7	-6%
CCC(C(=O)NC1CCCCC1)N(CC1CCCO1)C(=O)CNS(=O)(=O)c1ccc(OC)cc1 (centres undefined)	0.1%	-2%	-6%	4.3	16	-4	12%
CN(CC(=O)Nc1ccccc1C(F)(F)F)C(=O)CCc1nc2sc3c(c2c(=O)[nH]1)CCCC3	-9.6%	-40%[inhibitor]	?	.	7	0	17%
COc1ccc(-c2nnn(-c3cc(Cl)cc(Cl)c3)c2N)cc1	.	-32%[inhibitor][15.4 µM]	-14%	0.0	9	-6	-2%
O=c1c(O)c(-c2cc(O)c(O)c(O)c2)oc2cc(O)cc(O)c12	1.3%&1.6%&-2.0%&0.8%	.	-9%	?	79	-1	2.8µM*
CCN(CC(=O)NCc1cccs1)S(=O)(=O)c1ccc(C(C)C)cc1	-0.3%	-6%	4%	1.6	-2	-28	9%
COc1cc(O)c(C(CC(=O)N2CCCCC2)c2ccc3c(c2)OCO3)c(OC)c1 (centres undefined)	-1.4%	.	-4%	-1.5&0.3	-18&27	?	13%&12%
Nc1cc(N)nc(SCC(=O)N2CCN(S(=O)(=O)c3ccccc3)CC2)n1	0.5%	-7%	7%	0.6	.	9	12%
CCOc1ccc(Nc2cc(=O)oc3ccccc23)cc1	22%	14%	-9%	6.4	-9	-19	9%
Cc1cc(C)cc(NC(=O)CCc2c(C)nn(-c3ccc(N4CCCCC4)nn3)c2C)c1	-6.2%	-33%[inhibitor]	-25%	-6.9	-4	-6	10%
COc1cccc(N2CCN(C(=O)CCC(=O)N3CCOc4ccc(C)cc43)CC2)c1	-0.6%	1%	-23%	2.6	0	?	1%
COc1ccc(C(=O)c2ccc(N(C)C)cc2)c(OC)c1	-1.3%	?	-30%	3.1	4	0	2%
Nc1cc(=O)[nH]c(SCC(=O)Nc2cc(S(=O)(=O)N3CCCCC3)ccc2Cl)n1	-4.1%	-34%[inhibitor]	-6%	.	-1	-2	.
Cc1ccc(C(C)n2cc(C(=O)NCc3ccccn3)nn2)cc1 (centres undefined)	-3.5%	?	0%	-4.4	.	-4	-1%
CC(c1ccccc1F)n1cc(C(=O)NCCc2ccco2)nn1 (centres undefined)	0.8%	0%	2%	3.3	-4	-8	-16%
CCOC(=O)c1csc(NC(=O)CSc2nnnn2-c2ccc(OC)cc2)n1	-0.7%	2%	1%	3.0	19	0	4%
CCCCc1ccc(NC(=O)CSc2nc3ncccc3[nH]2)cc1	1.7%	-29%	-11%	-7.5	-8	0	13%
CC1CCCN(C(=O)Cn2c(=O)oc3cc(S(=O)(=O)N4CCCCC4)ccc32)C1 (centres undefined)	-6.6%&0.1%	-58%[inhibitor]	2%	-4.2	-9&-18	22	4%
Carrying on.
SMILES	ClpP mod	gsp ag	gsp antag	Menin-MLL FL inh	TRPML1 inh	TRPV1 potentiator	Sfp inh
CC(C)COC(=O)c1cc(=O)[nH]c2ccccc12	-8.5%	0%	15%	1.5	-2	5	6%
CCCOc1cccc(C(=O)Nc2ccc3c(c2)OCCO3)c1	-1.6%	-13%	-12%	-0.1	.	-8	8%
CCC(=O)N(C1=C(NC(C)C)C(=O)c2ccccc2C1=O)C(C)C	2.9%	-46%[inhibitor]	-10%	2.8	1	0	-13%
Cc1ccc2c(=O)n3c(nc2c1)C(Cc1ccc(O)cc1)NC(=O)c1cccnc1-3 (centres undefined)	-2.0%	-31%	.	.	54	.	.
CC(=O)Nc1ccc(S(=O)(=O)N2CCSC2C(=O)O)cc1 (centres undefined)	1.6%	-47%[inhibitor]	0%	3.2	2	7	14%
O=C(CCc1nc2ccccc2c(=O)[nH]1)Nc1nnc(SCc2ccccc2F)s1	-2.3%	?	1%	.	9	4	.
Cc1cccc(C)c1NC(=O)CN1CCN(C(=O)c2cc(C3CC3)nn2-c2ccccc2)CC1	-4.4%	-59%[inhibitor]	.	.	-10	.	.
COc1nc(C)ccc1-c1noc(-c2ccco2)n1	-13%	?	-15%	-7.8	-3	-7	11%
O=C(CNS(=O)(=O)c1ccc(Br)cc1)NCc1cccnc1	1.1%	-1%[15.4 µM]	20%	.	19	0	-4%
O=C(COc1ccc(-c2nnco2)cc1)N1CCN(S(=O)(=O)c2ccc3ccccc3c2)CC1	0.1%	-35%[inhibitor]	-2%	-0.7	5	1	-7%
CC12CCC(C(=O)Nc3ccncc3)(CC1O)C2(C)C (centres undefined)	-0.4%	2%	1%	0.0	-6	14	1%

From PubChem
